Sa growth inh – S. aureus growth inhibition. S. aureus RN4220 growth, OD600, 20 h, 42 °C; stronger effect = lower value. AID 720641. relative growth, % (no concentration beside the values). actives 0.53% (n = 170,000);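 active means growth at 42 °C up to 50% and 20 or more points under that at 30 °C, or under 10% at both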;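 further: 300 nL library stock went into each well; scaled to the means of positive and negative controls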
HCMV NEC inh – disrupts HCMV UL50-UL53 complex binding. HTRF UL50-UL53 interaction, normalized percent inhibition. inhibition, % (test concentration not listed). actives 0.15% (n = 190,000). AID 1918969;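 active means both replicates at 50% or more, plus weaker picks with an unusually low signal ratio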;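 further: stock transfer was 100 nL into about 20 µL; 0% = negative control wells and 100% = wells with untagged competitor protein; inactives centre near -12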
GIV-Gai inh – inhibitors of GIV GBA-motif binding to rat Galpha-i3. P08753. Galpha-i3/FITC-GIV peptide fluorescence polarization, 90 min; stronger effect = lower value; scaled: aluminum fluoride 0%, vehicle 100%. percent of control (FP), % (no concentration beside the values). actives 0.42% (n = 210,000). AID 1224905;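 active means replicate mean at 85% of control or lower, very high polarization wells dropped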;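 further: wells of about 15 µL received 100 nL stock; the first replicate is given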
Target sequence (P08753 whole entry, looked up): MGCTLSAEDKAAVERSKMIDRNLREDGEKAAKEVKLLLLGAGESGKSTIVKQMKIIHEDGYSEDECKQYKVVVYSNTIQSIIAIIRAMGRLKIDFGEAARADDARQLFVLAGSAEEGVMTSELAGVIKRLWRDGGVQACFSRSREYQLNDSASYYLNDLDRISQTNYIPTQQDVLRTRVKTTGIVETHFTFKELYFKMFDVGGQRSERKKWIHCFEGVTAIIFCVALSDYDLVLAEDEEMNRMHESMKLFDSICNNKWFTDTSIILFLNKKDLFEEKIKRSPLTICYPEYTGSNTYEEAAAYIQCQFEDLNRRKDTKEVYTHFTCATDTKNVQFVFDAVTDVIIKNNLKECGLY
Sa growth inh second temp – further read-out of Sa growth inh, marked with its call; relative growth, %; measured here: growth at 30 °C;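 optical density after 20 h as mean of two plates; 100% = untreated growth and lower means inhibition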
* marks the source's active call; other numbers are inactive results; . = not tested or not shown; & = joins results of further samples.

Below each SMILES – Sa growth inh, Sa growth inh second temp, HCMV NEC inh, GIV-Gai inh
> COC(=O)c1ccc(CNC(=O)c2ccc(S(=O)(=O)N(C)C)cc2)cc1
    63, 81, -34, .
> Cc1ccc(S(=O)(=O)Nc2c(O)c3ccccc3oc2=O)c(C)c1
    114, 80, -21, 102
> CCOC(=O)Cc1csc(SCC(=O)c2cc(C)n(-c3ccc(C)cc3)c2C)n1
    102, 90, 7, .
> O=C(Cn1cc(C(=O)C2CC2)c2ccccc21)NCc1cccs1
    88, 80, ., 98
> Oc1ccc(F)c(F)c1
    84, 93, 8, .
> Cc1cccc(C(C)C)c1NC(=O)CN1CCc2ccccc21
    72, 82, -29, .
> N#CCCn1cc(C=NCc2ccccc2)c(-c2cc3ccccc3o2)n1
    114, 82, -30, .
> Cc1ccc(S(=O)(=O)N(CC(=O)NO)Cc2ccccc2)cc1
    93, 101, -9, 117
> Cc1nnc(SCc2cc(=O)[nH]c(=S)[nH]2)s1
    98, 96, 2, 107
> COc1nc(NS(=O)(=O)c2ccc(C)cc2)nc(C)c1Br
    ., ., -15, 100
> Cc1cc(C)n(C(=O)C(C)NC(=O)c2ccccc2)n1 (stereo unspecified)
    70, 92, 0, 107
> Cc1sc2c(c1C)c(=O)n(-c1ccc(Cl)cc1)c(=O)n2Cc1cc(=O)n2cc(Br)ccc2n1
    111, 103, -8, 107
> O=C(CN1CCSCC1)N/N=C/c1ccc(Br)cc1
    96, 104, -27, 104
> O=C1CCN=C(N(C(=O)c2ccco2)c2ccc(F)c(Cl)c2)S1
    115, 86, 2, 98
> O=C(O)CC1(CC(=O)Nc2ccc3c(c2)OCCO3)CCCCC1
    111, 94, -28, .
> CSc1ccc(CNC(=O)c2sc3ncnc(N(C)C4CCCCC4)c3c2C)cc1
    118, 91, ., 99
> c1ccc(-n2c(SCc3cc(-c4cccs4)on3)nnc2C2CC2)cc1
    80, 53, -24, .
> COc1ccc(NC(=O)CN(C)CC(=O)c2c(C)[nH]c3ccccc23)cc1
    102, 83, -15, .
> COc1ccc(NC(=O)CNS(=O)(=O)c2cccs2)c(OC)c1
    84, 87, ., 101
> COc1ccc(C2CC(=O)C3=C(C2)Nc2ccccc2N(C(=O)c2cc(OC)c(OC)c(OC)c2)C3c2cccs2)cc1 (stereo unspecified)
    ., ., -15, 101
> O=C(Nc1cccnc1)c1c(O)c2c(n(C3CC3)c1=O)CCCC2
    84, 88, -21, 102
> COC(=O)c1cc2cc(N)ccc2s1
    93, 67, 17, 101
> CCCc1nc(SC)[nH]c(=O)c1C
    111, 96, -6, 98
> CC1CCCC(C)N1C(=O)COC(=O)CCC1CCCC1 (stereo unspecified)
    100, 89, -4, .
> N#Cc1cccc(NC(=O)COC(=O)CCC2CCCC2)c1
    89, 94, -14, .
> COC(=O)c1ccccc1NC(=O)c1oc2ccc(F)cc2c1C
    108, 102, -6, 104
> COc1ccccc1CNC(=O)c1ccc2nc(-c3ccccc3)c(-c3ccccc3)nc2c1
    104, 86, ., 103
> Cc1cccc(N2CCN(C(=O)Cn3c(=O)c4cccn4c4ccc(F)cc43)CC2)c1C
    104, 97, -2, 95
> CN(C)C(=O)c1cn(-c2ccccc2)nc1-c1ccc(OC(F)F)cc1
    64, 80, -17, .
> Cc1ccc(NC(=O)Cn2cc(S(=O)(=O)c3ccc(F)cc3)c(=O)c3cc4c(cc32)OCO4)cc1
    114, 85, -25, 108
> CC1(C)CC(=O)C2=C(C1)OC(N)=C(C#N)C21C(=O)c2ccccc2C1=O
    108, 98, 14, 110
> Cc1ccc(C2CC(=O)C=C(Nc3n[nH]c(C)c3-c3ccccc3)C2)cc1 (stereo unspecified)
    88, 68, ., 105
> CCOc1ccc(-c2noc(-c3ccc[nH]c3=O)n2)cc1OC
    ., ., -42, 102
> CCN(CC)c1ccc(/C=C2\NC(=S)NC2=O)cc1
    96, 98, -38, .
> N#C/C(=C\c1ccc(C(F)(F)F)cc1)c1c[nH]c2ccccc12
    98, 64, -7, 111
> O=C(COc1ccccc1)c1ccc(O)cc1O
    112, 55, 1, .
> Cc1ccc(C(=O)OCC(=O)N2CCC(Cc3ccccc3)CC2)s1
    94, 99, 1, .
> CCc1ccc(C2C(C(=O)Nc3ccc(Cl)cc3)=C(C)Nc3ncnn32)cc1 (stereo unspecified)
    102, 79, -13, 100
> CCCCN(c1ccccc1)S(=O)(=O)c1cc2c3c(c1)C(C)C(=O)N3CCC2 (stereo unspecified)
    117, 81, ., 92
> Cc1ccc(/C=C(\C#N)C(=O)NC2CCCCC2C)o1 (stereo unspecified)
    80, 95, -26, .

Next structures follow:
smiles	Sa growth inh	Sa growth inh second temp	HCMV NEC inh	GIV-Gai inh
Cc1ccc(C2=CC(c3ccccc3Cl)n3nc(NS(C)(=O)=O)nc3N2)cc1 (stereo unspecified)	.	.	-52	102
COc1ccccc1CCNS(=O)(=O)c1ccc(C(=O)O)n1C	110	87	-29	102
CCCCN(CC)C(=O)CSc1nc2ccccc2c(=O)n1Cc1ccco1	123	99	.	104
Fc1cc(F)c(NC(=S)N2CCOCC2)c(F)c1	82	91	-36	99
Nc1cc2c(cc1Cl)OCO2	82	65	-5	108
Cc1ccc(CCNC(=O)c2cc3c(s2)-c2ccccc2OC3)cc1	91	88	-18	97
O=C(Cn1nc(Cc2ccncc2)c2ccccc2c1=O)NCCC1=CCCCC1	172	85	-1	105
CCOc1ccc2nc(/N=C/c3nc(-c4ccc(Br)cc4)oc3O)sc2c1	.	.	-30	163
Cc1ccccc1-c1nc2c3c(C)c(C)n(Cc4ccccc4)c3ncn2n1	.	.	-27	108
CC(Oc1ccc2c3c(c(=O)oc2c1)CCC3)C(=O)c1ccccc1 (stereo unspecified)	94	82	-13	.
CNC(=S)N/N=C(\C)Cc1ccc(OC)cc1	80	80	-25	.
Cc1cc(C(=O)CSc2n[nH]c(N)n2)c(C)n1Cc1ccc2c(c1)OCO2	114	96	2	.
CCOC(=O)c1cnc2c(OC)cccc2c1NC1CCCCC1	108	74	.	99
O=C1c2ccccc2C(=O)N1CC(F)(F)F	118	91	-16	.
COc1ccc(CCNC(=O)c2ccc(Cn3c(SCC(=O)NCCC(C)C)nc4cc5c(cc4c3=O)OCO5)cc2)cc1OC	95	99	.	109

An excerpt from the list above:
smiles	Sa growth inh	Sa growth inh second temp	HCMV NEC inh	GIV-Gai inh
Cc1ccc(C2=CC(c3ccccc3Cl)n3nc(NS(C)(=O)=O)nc3N2)cc1 (stereo unspecified)	.	.	-52	102
COc1ccccc1CCNS(=O)(=O)c1ccc(C(=O)O)n1C	110	87	-29	102

(next part)
smiles	Sa growth inh	Sa growth inh second temp	HCMV NEC inh	GIV-Gai inh
CCOC(=O)c1sc(-c2ccccc2)nc1OCc1c(Cl)cccc1Cl	98	98	.	102
CN(C)S(=O)(=O)c1ccc(C(=O)OCc2csc(Nc3ccccc3)n2)cc1	97	91	-18	.
O=C(NC(=S)NC1C2CC3CC(C2)CC1C3)c1ccco1 (stereo unspecified)	38	24	1	100
O=c1oc(-c2ccc(F)cc2)nc2scc(-c3cccs3)c12	97	98	-4	99
CC(Oc1cccc(Cl)c1)C(=O)N(C)Cc1nc2ccccc2c(=O)[nH]1 (stereo unspecified)	74	72	-27	.
CCC(C)NC(=O)Cn1c(=O)n(Cc2ccc(C(=O)NCc3ccc(C)cc3)cc2)c(=O)c2ccccc21 (stereo unspecified)	110	94	-16	103
CC(Sc1nnc(-c2ccncc2)o1)C(N)=O (stereo unspecified)	109	104	-11	102
COc1ccc2cc3cc(C(=O)NCCCN4CCN(C)CC4)sc3nc2c1	87	88	-132	105
Cc1cccc(N2CCN(C(=O)C(NS(=O)(=O)c3cccc4nsnc34)C(C)C)CC2C)c1 (stereo unspecified)	105	74	.	126
CC1CCCCN1C(=O)c1ccc2ccccc2n1 (stereo unspecified)	89	92	-39	.
O=C1CCOc2ccc3ccccc3c21	108	101	-33	102
NNC(=O)CNc1c(-c2ccsc2)nc2ccccn12	106	89	.	105
CCOC(=O)c1cc(C(C)(C)C)n(CCCN2CCOCC2)c1C	107	95	3	99
Fc1ccccc1OCCCOc1ccccc1F	121	116	-6	95
COc1ccc(CCNC(=O)Cn2cc(C(=O)c3ccccc3)c(=O)c3ccc(C)nc32)cc1OC	110	102	.	115
Cc1oc(-c2ccc(C(=O)N3CCc4ccccc4C3)cc2)nc1CN1CCc2ccccc21	.	.	-16	107
Cc1ccc(-c2cnc(C3CC3)o2)cc1S(=O)(=O)N1CCc2ccccc2C1	.	.	-11	105
CC(C)CNS(=O)(=O)c1ccc2nc(NC(=O)c3ccccn3)sc2c1	68	47	-10	105
Cc1csc2nc(NC(=O)c3ccccc3)sc(=O)c12	122	91	-26	102
CN(C)c1ccc2c(c1)S(=O)(=O)c1cc(N(C)C)ccc1C2=O	105	111	-40	133
COC(=O)c1ccc(NC(=O)C(=O)NCC(c2cccnc2)N2CCc3ccccc32)cc1 (stereo unspecified)	101	88	-9	109
O=C(Sc1cccc2cccnc12)c1ccccc1	59	38	-13	.
O=c1[nH]c(O)c(/C=N/Nc2ccccc2)c(=O)[nH]1	87	45	-12	100
OCCCNc1ncnc2sc(-c3ccccc3)cc12	128	75	-59	.
Cc1ccc2oc(-c3ccc(Cl)c(NC(=O)c4ccc(OC(C)C)cc4)c3)nc2c1	101	88	-10	106
CNS(=O)(=O)c1cn(CC(=O)N2CCN(c3ccc(OC)cc3)CC2)cc1S(=O)(=O)NC	83	93	.	102
CCOc1ccc2sc(C=NCc3ccc(F)cc3)c(O)c2c1	.	.	-24	111
CCc1noc(-c2ccc(NC(C)c3ccccc3)c([N+](=O)[O-])c2)n1 (stereo unspecified)	94	86	-21	99
CCOC(=O)c1c(S(=O)(=O)Nc2ccc(OC)c(Cl)c2)c(C)n(C)c1C	102	94	-18	103
O=C(CSc1ncnc2c1oc1ccccc12)Nc1cccc2ccccc12	105	82	-17	104
Cc1cc(OCC(=O)c2cc(C)n(-c3nccs3)c2C)ccc1Cl	90	94	-21	.
CCCN1CCN(C(=O)C2CCN(C3=NS(=O)(=O)C(c4ccc(OC)cc4)=C3C)CC2)CC1	.	.	-38	102
CC(C)(O)CNC(=O)C(Cc1ccccc1)N1C(=O)c2ccccc2C1=O (stereo unspecified)	102	94	11	.
CCCCCc1nnc(NC(=O)C2CC(=O)N(CCc3c[nH]c4ccc(C)cc34)C2)s1 (stereo unspecified)	.	.	-6	110
CCOC(=O)c1csc(N2CCc3ccccc32)n1	76	62	-4	107
Cc1cc(N2CCC(C(=O)NC3CC3)CC2)n2nc(C)c(-c3ccc(Cl)cc3)c2n1	99	91	-18	101
CCOC(=O)c1c(NC(=O)CSc2cn(CCNC(=O)c3c(F)cccc3F)c3ccccc23)sc2c1CCC2	93	86	-26	104
O=C(CCSc1cccs1)Nc1cccnc1	70	100	-3	101
CCCCNC(=O)c1c(-c2ccccc2)c(-c2ccccc2)nn(C)c1=O	89	78	-28	94
Cc1ccc(-c2nc(C)c(CCNC(=O)c3ccco3)s2)cc1	82	84	.	108
CCOC(=O)c1nnc2c(-c3ccc(Cl)cc3)c(C)nn2c1C	94	82	-67&-59	103&102
COc1cc(Cl)c(S(=O)(=O)NCCc2c(C)[nH]c3c(C)cccc23)cc1Cl	117	104	12	104
c1cc(CN2CCC(N3CCCCC3)CC2)ccn1	98	98	0	.
COc1ccc(C(=O)CCC(=O)Nc2cc(C)ccc2C)cc1	122	95	.	112
CCN(C(=O)c1cc2c(C)nc3ccccc3c2o1)c1cccc(Cl)c1	89	95	.	107
CCn1c(=O)c2c(C(=O)Nc3ccc(F)cc3F)cc(=O)n(CC)c2n(C)c1=O	.	.	-34	101
O=c1c2ccccc2nnn1CSc1nnc(CN2CCCC2)n1Cc1ccccc1	82	96	-35	.
C=CCn1c(SCCC(=O)NCc2ccc3c(c2)OCO3)nc2scc(-c3ccco3)c2c1=O	118	93	-11	108
O=C1NC(c2ccccc2)Nc2c1sc(=S)n2-c1ccccc1 (stereo unspecified)	70	28	-56	105
COc1ccc(OC)c(S(=O)(=O)n2nc(C)c(S(=O)(=O)N3CCOCC3)c2C)c1	.	.	-29	100
COc1ccc(CCNC(=O)c2cnn(-c3ccc(F)cc3)c2C2CCN(C(=O)OC(C)(C)C)CC2)cc1OC	81	86	.	98

One compound at a time, as listed above. Screens in order: Sa growth inh | Sa growth inh second temp | HCMV NEC inh | GIV-Gai inh
Profile of COc1ccc(OC)c(S(=O)(=O)n2nc(C)c(S(=O)(=O)N3CCOCC3)c2C)c1 = . | . | -29 | 100
Profile of COc1ccc(CCNC(=O)c2cnn(-c3ccc(F)cc3)c2C2CCN(C(=O)OC(C)(C)C)CC2)cc1OC = 81 | 86 | . | 98

Quoted from the listing:
In Sa growth inh second temp, `O=c1c2ccccc2nnn1CSc1nnc(CN2CCCC2)n1Cc1ccccc1` is listed with 96
In HCMV NEC inh, `CCn1c(=O)c2c(C(=O)Nc3ccc(F)cc3F)cc(=O)n(CC)c2n(C)c1=O` is listed with -34
In Sa growth inh second temp, `C=CCn1c(SCCC(=O)NCc2ccc3c(c2)OCO3)nc2scc(-c3ccco3)c2c1=O` is listed with 93
In Sa growth inh, `O=C1NC(c2ccccc2)Nc2c1sc(=S)n2-c1ccccc1` (stereo unspecified) is listed with 70
In GIV-Gai inh, `COc1ccc(CCNC(=O)c2cnn(-c3ccc(F)cc3)c2C2CCN(C(=O)OC(C)(C)C)CC2)cc1OC` is listed with 98
In GIV-Gai inh, `COc1ccc(OC)c(S(=O)(=O)n2nc(C)c(S(=O)(=O)N3CCOCC3)c2C)c1` is listed with 100
